GIV Gai3 FP = inhibitors of GIV GBA-motif binding to rat Galpha-i3. P08753. Galpha-i3/FITC-GIV peptide fluorescence polarization, 90 min; hits give low values; scaled: aluminum fluoride 0%, vehicle 100%. percent of control (FP), % (test concentration not listed). 210,000 compounds, 0.42% hits. AID 1224905;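 active = replicate mean at 85% of control or lower, very high polarization wells dropped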;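 note: wells of about 15 µL received 100 nL stock; the first replicate is given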
Target sequence (P08753 whole entry, looked up): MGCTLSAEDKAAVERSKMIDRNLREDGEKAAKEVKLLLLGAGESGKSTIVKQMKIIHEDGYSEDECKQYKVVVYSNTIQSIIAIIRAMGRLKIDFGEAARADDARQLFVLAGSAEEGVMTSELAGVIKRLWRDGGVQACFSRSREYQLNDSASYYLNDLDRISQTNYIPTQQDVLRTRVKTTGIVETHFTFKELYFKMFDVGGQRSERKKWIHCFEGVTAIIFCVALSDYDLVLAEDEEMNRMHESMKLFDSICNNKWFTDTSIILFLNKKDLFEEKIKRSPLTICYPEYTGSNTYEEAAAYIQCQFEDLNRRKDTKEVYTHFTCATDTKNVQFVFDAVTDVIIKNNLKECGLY
An asterisk follows results filed as active. The list is partial; count on the stated rates, not on these rows.

SMILES	GIV Gai3 FP
CC(=O)Nc1ccc(NC(=O)CCc2c(C)nn(-c3ccc4nncn4n3)c2C)cc1	103
COc1cccc(-n2c(SCC(=O)Nc3cc(OC)ccc3OC)nc3n[nH]c(C)c3c2=N)c1	118
COc1ccc(CC(=O)NCC2(c3ccccc3)CCCC2)cc1OC	106
COc1ccc(OC)c(NC(=O)c2cc3n(n2)C(C(F)(F)F)CC(c2ccc(OC)c(OC)c2)N3)c1 (centres undefined)	106
COc1ccc(-n2ncc3c(N4CCN(c5ccccc5Cl)CC4)ncnc32)cc1	126
COc1ccc(-c2[nH]ncc2CN2CCCC2c2cc(C)on2)cc1 (centres undefined)	105
CCOC(=O)C1=C(C)NC2=C(C(=O)C(C(=O)OCC)C(c3ccc(OC)cc3)C2)C1c1ccc(N(C)C)cc1 (centres undefined)	103
CCc1ccc(N(C)S(=O)(=O)c2ccc3[nH]cc(C(=O)N4CCc5ccccc5C4)c(=O)c3c2)cc1	120
O=C(c1csc(S(=O)(=O)NC2CC2)c1)N1CCCC1	103
COC(=O)c1ccc(Nc2nc(C)c([N+](=O)[O-])c(Nc3ccc(C(=O)OC)cc3)n2)cc1	114
COc1ccc(OC)c(-n2c(=S)[nH]c3cc(C(=O)NCc4ccc5c(c4)OCO5)ccc3c2=O)c1	102
COc1ccc(N2C(=O)C3C4c5ccccc5C(C=Nc5ccc(C)cc5C)(c5ccccc54)C3C2=O)cc1 (centres undefined)	102
CCOC(=O)c1ccc(NC(=O)Cn2nc(C(=O)Nc3ccc(C)cc3)ccc2=O)cc1	101
O=S(=O)(Cc1nc(-c2cccc(Br)c2)no1)c1ccccc1	109
Fc1ccc(-c2nc3c(F)c(F)c(F)c(F)c3nc2-c2ccc(F)cc2)cc1	106
COc1ccccc1Cn1c(SCC(=O)c2ccccc2)nc2cc(C(=O)N3CCC4(CC3)OCCO4)ccc2c1=O	127
CCc1cc(C)cc(OCCOc2ccc(-c3nc4sc5c(c4c(=O)[nH]3)CCCC5)cc2OC)c1	101
O=C(COC(=O)c1ccccc1N1C(=O)C2C3C=CC(C3)C2C1=O)c1ccc(Cl)c([N+](=O)[O-])c1 (centres undefined)	112
COc1ccc(C(=O)[C@@H]2[C@@H](c3ccsc3)C(C#N)(C#N)[C@H]3C=Cc4ccccc4N23)cc1	131
COc1ccc(S(=O)(=O)NCCc2c[nH]c3ncccc23)cc1OC	103
CCOC(=O)C1(C)CC(=O)C(=O)N1c1cccc(Cl)c1 (centres undefined)	105
COc1ccc(-n2c(SCC(=O)Nc3nccs3)nc3c(sc(=S)n3-c3ccccc3)c2=O)c(OC)c1	117
COc1ccc(C2CC(=O)Nc3c2cnn3-c2ccc3nnc(C)n3n2)c(OC)c1 (centres undefined)	100
CCn1cc(CN2CCCC(OCc3nc(C4CC4)no3)C2)cn1 (centres undefined)	101
Cc1c(C(=O)NCc2ccco2)oc2ccccc12	106
O=C(c1ccc2c(c1)nc1n2CCCC1)N1CCCCC1	106
COC(=O)c1ccc(C(=O)OC)c(NC(=O)c2cc3nc(-c4ccc5c(c4)OCO5)cc(C(F)(F)F)n3n2)c1	108
Cc1nc2c(c(N(C)CCc3c(C)nn(C)c3C)n1)CCC2	100
CCOC(=O)N1CCC2(CC1)N=C(c1cc(Cl)ccc1O)CC(c1ccccc1)N2 (centres undefined)	104
Cc1ccc(S(=O)(=O)Nc2cc3c4c(oc3c3ccccc23)CC(C)CC4)cc1 (centres undefined)	113
Cc1ccc(C)c(S(=O)(=O)N2CCC(c3noc(-c4ccc(F)cc4)n3)CC2)c1	102
O=C(c1ccc2c(c1)[nH]c(=S)n1c3ccccc3nc21)N1CCN(c2ccc(F)cc2)CC1	119
Cc1ccc(N2C(=O)CSC23C(=O)N(CN2CCc4ccccc4C2)c2ccccc23)cc1Br (centres undefined)	115
CCOC(=O)C1=CN(Cc2ccc(F)cc2)C=C(C(=O)OCC)C1c1cc(OC)c(O)c(OC)c1	114
CC(=O)Oc1ccc2ccccc2c1/C=N/c1oc(-c2ccccc2)c(-c2ccccc2)c1C#N	114
O=[N+]([O-])/C(C(Cl)=C(Cl)Cl)=C(\Nc1ccccc1)Sc1ccccc1	110
COc1ccccc1CN1C(=O)C2ON(c3ccccc3)C(c3cccc([N+](=O)[O-])c3)C2C1=O (centres undefined)	110
COc1ccc(C(=O)Nc2cc(C(=O)Nc3ccccc3SC)ccc2N2CC3CC(C2)c2cccc(=O)n2C3)cc1 (centres undefined)	110
Cc1nc2ccccn2c(=O)c1NC(=O)c1ccc(F)cc1	99
O=C(c1cc(S(=O)(=O)N2CCOCC2)ccc1Sc1ccc(Br)cc1)N1CCC2(CC1)OCCO2	96
CC(C)c1ccc(N(C)S(=O)(=O)c2ccc3[nH]cc(C(=O)N4CCN(c5ccccc5)CC4)c(=O)c3c2)cc1	102
CCOC(=O)c1sc(NC(=O)c2ccc3c(c2)OCCO3)nc1C	100
COCc1cc(C)c2c(N)c(C(=O)c3ccc(Cl)cc3Cl)sc2n1	103
Cc1cccc[n+]1C1C(c2ccc([N+](=O)[O-])cc2)C(C#N)=C(C(=C=[N-])C#N)NC1(O)C1CC1 (centres undefined)	105
COc1ccc(CN2CCCC2c2cc(C)on2)cc1COCC(F)(F)F (centres undefined)	104

An excerpt from above in order of their number in GIV Gai3 FP, highest first:
SMILES	GIV Gai3 FP
O=C(c1ccc2c(c1)[nH]c(=S)n1c3ccccc3nc21)N1CCN(c2ccc(F)cc2)CC1	119
Cc1ccc(N2C(=O)CSC23C(=O)N(CN2CCc4ccccc4C2)c2ccccc23)cc1Br (centres undefined)	115
CC(=O)Oc1ccc2ccccc2c1/C=N/c1oc(-c2ccccc2)c(-c2ccccc2)c1C#N	114
O=[N+]([O-])/C(C(Cl)=C(Cl)Cl)=C(\Nc1ccccc1)Sc1ccccc1	110
Cc1cccc[n+]1C1C(c2ccc([N+](=O)[O-])cc2)C(C#N)=C(C(=C=[N-])C#N)NC1(O)C1CC1 (centres undefined)	105
CC(C)c1ccc(N(C)S(=O)(=O)c2ccc3[nH]cc(C(=O)N4CCN(c5ccccc5)CC4)c(=O)c3c2)cc1	102
Cc1nc2ccccn2c(=O)c1NC(=O)c1ccc(F)cc1	99

Next entries
SMILES	GIV Gai3 FP
Cc1cccc(N2CC(O)(c3ccc(F)cc3)[N+]3=C2CCCC3)c1C (centres undefined)	110
CCOC(=O)c1cnc2c(C)cc(C)cc2c1Nc1ccccc1CC	107
O=C(CSc1nc2ccccc2c(=O)n1CC1CCC(C(=O)NCC2CCCO2)CC1)NCCc1ccccc1 (centres undefined)	115
CCOC(=O)C1=CN(Cc2ccc(OC)c(OC)c2)C=C(C(=O)OCC)C1c1ccc(OCC)c(OC)c1	102
CC(C)c1cc(C2CCCN2S(=O)(=O)c2ccc(Br)cc2)on1 (centres undefined)	97
Cc1ccc(NC(=O)CCc2nc(-c3ccc(S(=O)(=O)N4CCCC4)cc3)no2)cc1Cl	102
CCCCCCCCOc1ccc(C(=O)Oc2ccc(OCCCCC)cc2)cc1	106
C=CCOc1ccc(/C=c2\sc3nc(-c4cccnc4)nn3c2=O)cc1	109
Cc1cc(C(F)(F)F)c(C#N)c(SCC(=O)Nc2ccccc2)n1	102
COc1ccc(C2=NN3C(C2)c2cccc(OC)c2OC3c2cc(OC)c(OC)c(OC)c2)cc1 (centres undefined)	118
COc1ccc(NS(=O)(=O)c2c(C)c(C)cc3c(C)c(C(=O)N4CCCC4)oc23)c(OC)c1	105
O=C1CC(c2ccc(C(F)(F)F)cc2)c2cc(Br)c3ccccc3c2N1 (centres undefined)	103
C=CCSC1=NC2(CC(c3ccccc3Cl)Oc3cc(O)c(Cl)cc32)CC(C)(C)N1 (centres undefined)	96
CCN(CC)C(=O)CN1C(=O)C2(Nc3ccccc3C(=O)N2c2ccc(Cl)cc2)c2ccccc21 (centres undefined)	101
CCOC(=O)c1sc(NC(=O)CSc2nc3ccccc3[nH]2)nc1C	121
Cc1cc2c(cc1C)CSC(c1cc(Cl)ccc1O)SC2	110
CCCc1cc(C2CCCN2C(=O)Nc2ccc3c(c2)OCO3)no1 (centres undefined)	105
Cc1cc(S(=O)(=O)NCC2(C)CCOCC2)ccc1F	94
Cc1cc(C2CCCN2Cc2sccc2C)on1 (centres undefined)	102
COC(=O)c1c(-c2cccc(Cl)c2)noc1NC1CCCc2ccccc21 (centres undefined)	105
CCOc1ccc(-c2ccc(OCCNC(=O)COc3ccccc3)nn2)cc1	99
COc1ccc(NC(=O)C2CCN(S(=O)(=O)c3ccc4c(c3)CCCN4C(C)=O)CC2)cc1	102
COc1cc(C2C3=C(CC(C)(C)CC3=O)OC3=C2C(=O)CC(C)(C)C3)ccc1OCc1ccc(Cl)cc1	115
O=C(Nc1ccc2c(c1)OCCO2)c1cc2c(s1)CN(C1CC1)C2	101
O=C(Nc1ccc(Br)cc1)c1ccc(F)c(S(=O)(=O)N2CCN(c3ccccn3)CC2)c1	107
COc1ccc(N2CCN(C(=O)CSc3nc4[nH]ncc4c(=O)n3-c3ccccc3C)CC2)cc1	111
CCC(=O)NCC12CC3CC(C1)CC(c1ccc(C)cc1)(C3)C2	96
CC(C)COc1ccccc1NC(=O)C1OC2OC(C)(C)OC2C2OC(C)(C)OC12 (centres undefined)	115
O=C1/C(=C/c2ccc(Br)cc2)C=C(c2ccccc2)N1c1cccc2ccccc12	135
O=C(c1ccc2c(c1)OCO2)N1CCN(Cc2cc(=O)n3nc(-c4ccccc4F)sc3n2)CC1	104

Arranged by length of the SMILES (lowest first): 3 of the compounds above.
SMILES	GIV Gai3 FP
O=C1/C(=C/c2ccc(Br)cc2)C=C(c2ccccc2)N1c1cccc2ccccc12	135
COc1ccc(NC(=O)C2CCN(S(=O)(=O)c3ccc4c(c3)CCCN4C(C)=O)CC2)cc1	102
COc1cc(C2C3=C(CC(C)(C)CC3=O)OC3=C2C(=O)CC(C)(C)C3)ccc1OCc1ccc(Cl)cc1	115

Carrying on:
SMILES	GIV Gai3 FP
O=C(NCCC1=CCCCC1)c1cccc(Oc2cc(-c3ccc(F)cc3)ncn2)c1	101
CCN(CC)S(=O)(=O)c1ccc(-n2cnc(C(=O)Nc3cc(C(C)(C)C)ccc3O)c2)cc1	196
N#CCCSc1sc(=S)sc1SCCC#N	102
CCOC(=O)C1=NNC2C(=O)N(c3cccc4ccccc34)C(=O)C12 (centres undefined)	116
CC1=C(C#Cc2ccccc2)c2ccccc2OC1(c1ccccc1)N1CCCCC1 (centres undefined)	105
COc1ccc(C(=O)[C@@H]2[C@@H](c3cccc(Br)c3)C(C#N)(C#N)[C@H]3C=Cc4ccccc4N23)cc1	115
Cc1cc(C)c2c(c1)CC(C)(C)c1nc3nonc3nc1-2	108
Cc1ccc(OCCn2c(=S)[nH]c3c(N)ncnc32)cc1	105
OC(CN1CCN(c2cccc(Cl)c2)CC1)c1ccc2c(c1)OCO2 (centres undefined)	101
Cc1nc(N2CCC(C)CC2)c2c(C)c(C(=O)N3CCC(C)CC3)sc2n1	106
CC(C)(C)c1csc(-c2csc(S(=O)(=O)Nc3cccc(Br)c3)c2)n1	108
O=C(O)c1cn(-c2ccc(F)cc2)c2cc(N3CCN(CC(F)(F)F)CC3)c(F)cc2c1=O	106
CCc1nnc(NC(=O)CSc2nc(=O)[nH]c3c2CCCC3)s1	104
CCc1cc(C2CCCN2C(=O)NCCC(C)C)on1 (centres undefined)	98
COc1ccc(S(=O)(=O)N2CCOc3ccc(COCc4ccccc4Cl)cc3C2)cc1	101
O=C(NCc1ccc(Cl)cc1)c1ccc(Nc2ncc(-c3cccc(F)c3)cn2)cc1	105
O=C(Nc1ccc(F)cc1)C1Oc2ccccc2NC1=O (centres undefined)	106
O=C(c1ccc2c(c1)OCO2)N1CCc2c([nH]c3ccccc23)C1c1ccccc1 (centres undefined)	101
O=C(CN1C(=O)C2(OCCO2)c2cc([N+](=O)[O-])ccc21)c1ccccn1	107
Cc1cc(C2CCCN2C(=O)c2cc(C3CCCCC3)no2)on1 (centres undefined)	107
Cc1nc(C)c(-c2nc(-c3ccc4c(c3)Sc3ccccc3C(=O)N4C3CC3)no2)s1	97
Cc1cc(N2CCN(C)CC2)n2nc(CN3CCCC(C)C3)nc2n1 (centres undefined)	105
O=S(=O)(Nc1ccc(Cl)cn1)c1cc(-c2noc(C3CCC3)n2)cs1	100
O=C1CN(Cc2cccc(Cl)c2)S(=O)(=O)c2ccccc2N1Cc1ccc(Cl)cc1	103
Cc1ccc2c(c1)N(C(=O)Nc1ccccc1)C(C)(C)CC2C (centres undefined)	114
Cc1onc(-c2c(Cl)cccc2Cl)c1C(=O)Nc1sc2c(c1C(N)=O)CCC(C)C2 (centres undefined)	113
COc1ccc(C2CC(=O)NC(Nc3nc(C)c4ccc(C)cc4n3)=N2)cc1 (centres undefined)	110
Cc1ccc(N2C=C(C(=O)N3CCCC3)S(=O)(=O)c3ccccc32)cc1C	99
Cc1cc(C)c(S(=O)(=O)Nc2cnc(N3CCNCC3)c(C(=O)N3CCCCC3C)c2)cc1C (centres undefined)	98
CCc1nnc(-c2coc(S(=O)(=O)N3CCN(C4CCCCC4)CC3)c2)o1	101
COc1ccc(OC)c(N2C(=N)/C(=C(/O)c3ccc(C)cc3)C(c3ccc4c(c3)OCO4)C3=C2CCCC3=O)c1 (centres undefined)	110
Cc1ccc(COCc2nn(C)c3c2CN(S(=O)(=O)c2ccc(C)cc2)CC3)cc1	103
COC(=O)C1=C(C(=O)OC)SC(=C2C(=S)C(C)(C)N(C(=O)c3cccc(Br)c3)c3ccccc32)S1	112
CN1C(=O)N(C)C(NC(=O)NCCO)C1NC(=O)NCCO (centres undefined)	105
COC(=O)C1=C(C(=O)OC)SC(=C2C(=S)C(C)(C)N(C(=O)CN3C(=O)c4ccccc4C3=O)c3c(OC)cccc32)S1	96
O=C1C(c2ccccc2)=C(c2ccccc2)c2ccccc21	110

Reprinted at random: 4 compounds from above
SMILES	GIV Gai3 FP
Cc1cc(C2CCCN2Cc2sccc2C)on1 (centres undefined)	102
CCC(=O)NCC12CC3CC(C1)CC(c1ccc(C)cc1)(C3)C2	96
Cc1nc(N2CCC(C)CC2)c2c(C)c(C(=O)N3CCC(C)CC3)sc2n1	106
O=C(NCc1ccc(Cl)cc1)c1ccc(Nc2ncc(-c3cccc(F)c3)cn2)cc1	105
